Screening results from PubChem.
Mtb hypoxia inh: inhibitors of hypoxia-regulated fluorescent reporter in Mycobacterium tuberculosis | M. tuberculosis hypoxia-regulated fluorescent reporter, fluorescence | fluorescence inhibition, % (test concentration not listed) | 0.1% of 300,000 active;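 active = 35 to 45% if threefold the growth effect, above 45% if 1.5-fold the growth effect; inactive = the rest, general growth blockers included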;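 also: wells of about 50 µL received 100 nL stock; 0% = vehicle wells and 100% = reference inhibitor wells; whole bacteria with a GFP reporter of the hypoxia response; strong numbers were not always called active; many hits fall short of the cut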
Sa RN4220 lethal: kills Staphylococcus aureus RN4220 | S. aureus RN4220 growth, OD600, 16 h | inhibition, % (test concentration not listed) | 0.33% of 330,000 active;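 active = z-score of -3 or lower and OD600 up to 0.18 on both plates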;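 also: plate controls were untreated cells for no effect and reference antibiotic for full effect; stock transfer was 100 nL into about 80 µL; one replicate is shown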
ugtP null kill: compounds lethal to S. aureus RN4220 ugtP deletion mutant; OD600 growth, 16 h; some inactives read as strong as hits; AID 1259309; growth inhibition, % (concentration not given with the values); 0.54% of 330,000 active;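 active = z-score under -3 and OD600 up to 0.15 on both plates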;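 also: plate controls were untreated wells for no effect and antibiotic for full effect; wells of about 80 µL received 100 nL stock; the first replicate is given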
Autofluor counter: counter-screen for toxin protease inhibitors: compound fluorescence. compound autofluorescence counterscreen, microsphere flow cytometry; hits give high values. fluorescence intensity (no concentration beside the values). 3.1% of 360,000 active. AID 624483;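 active = at least 3 SD above the mean of all compounds, about 16000 in these data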;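 also: 100 nL of 1 mM stock went into each well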
PrP UTR inh: suppresses PrP 5' UTR mRNA reporter expression | cell-based PrP 5' UTR mRNA reporter, plate reader | inhibition, % (concentration not given with the values) | 0.35% of 340,000 active | AID 488862;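 active = every replicate at 50% or more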;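 also: 0 = median of the neutral control wells; tested in H4 reporter cells; numbers are from one replicate; inactives centre near -14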
BJeLR lethal: kills HRASV12-expressing BJeLR cells; BJeLR (HRASV12) viability, CellTiter-Glo ATP luminescence, 48 h; reference of the scale not given here; inhibition, % (test concentration not listed); 0.17% of 300,000 active;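 active = replicate mean above 50%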;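 also: 50 nL library stock added to about 25 µL; numbers are from one replicate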
Mtb hypoxia inh growth: second read-out of Mtb hypoxia inh, no call of its own (marks repeat the call); growth inhibition, %; measured here: M. tuberculosis growth (absorbance);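 0% = vehicle and 100% = reference antibiotic; read after six days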
An asterisk follows results filed as active; / = no result given.

SMILES | Mtb hypoxia inh | Mtb hypoxia inh growth | Sa RN4220 lethal | ugtP null kill | Autofluor counter | PrP UTR inh | BJeLR lethal
C(=N\Nc1nc(N2CCCCCC2)nc(N2CCCCCC2)n1)/c1ccccc1 | / | / | / | / | 2655 | -30 | -3
COc1ccc(OCCC(=O)NCCN2CCOCC2)cc1 | 8 | 11 | 5.1 | 8 | 2060 | 0 | 4
O=C(NCc1cccnc1)c1cc(-c2ccco2)on1 | 6 | 0 | 0.6 | -3 | 10702 | / | 0
COc1ccccc1-c1noc(CCC(=O)Nc2cccc(C(F)(F)F)c2)n1 | 7 | 7 | 29 | 0 | 3974 | -15 | 5
CC1=C(C(=O)Nc2cc(C(=O)NCCC(C)C)ccc2C)SCCO1 | -4 | -7 | 7.4 | 2 | 2897 | -9 | -11
CCN(CC(=O)Nc1c(F)cccc1F)C(=O)C1CCN(C(=O)c2ccc(Cl)cc2)CC1 | -9 | -12 | -2.1 | -1 | 5879 | -21 | -3
Cc1ccc(C2=NOC(C)(c3nnc(-c4cccc(Cl)c4)o3)C2)cc1 (stereo unspecified) | 20 | 9 | 7.2 | 7 | 2959 | -2 | -1
CNCC1Oc2c(NS(=O)(=O)c3ccccc3)cccc2C(=O)N(C(C)CO)CC1C (stereo unspecified) | 8 | 7 | 3.1 | -12 | / | / | /
CCOc1ccc(S(=O)(=O)Nc2cccc(C(=O)NCC3(N4CCCCC4)CCCCC3)c2)cc1 | 10 | 4 | 1.4 | 7 | / | -9 | -1
COCCCNC(=O)c1ccc(CS(=O)(=O)c2ccc(OC)cc2)o1 | / | / | -2.0 | 7 | 6115 | -26 | 7
Cc1csc(NC(=O)CNS(=O)(=O)c2cccs2)n1 | 0 | -5 | -4.2 | -7 | 4513 | -5 | 3
Cc1ccc(Cl)cc1N1CCN(C(=O)c2noc(C)c2[N+](=O)[O-])CC1 | 18 | 12 | 32 | 12 | / | -18 | 14
Cc1ccc(C)c2[nH]c(=O)c(CCNC(=O)c3ccc4c(c3)OCO4)cc12 | 15 | 3 | 2.9 | -1 | 7954 | -4 | 1
CC1CN(c2ccc([N+](=O)[O-])c(NCCOc3ccc(Cl)cc3)c2)CC(C)N1 (stereo unspecified) | 14 | 8 | -0.3 | -9 | 4761 | -20 | 4
Cc1cc(C)cc(OCc2ccc(C(=O)NN)o2)c1 | 6 | 0 | 6.0 | 9 | 4929 | -17 | -3
CC(Cc1cccs1)NC(=S)Nc1ccc(F)cc1 (stereo unspecified) | -2 | 8 | -6.4 | -11 | 2563 | -17 | 3
COc1ccc(C(=O)NCc2nnc(SCC(=O)N3CCc4ccccc43)n2C2CCCCC2)cc1 | -7 | 5 | 4.9 | 9 | 2181 | -3 | 2
Cc1ccc2nc(N3C(=O)CNC3=S)sc2c1 | 5 | 3 | 3.9 | 0 | / | -91 | 8
N#C/C(=C/Nc1ccccc1F)S(=O)(=O)c1ccc(Cl)cc1 | 13 | -3 | 3.7 | -16 | 3767 | -12 | -9
O=C(CN1C(=O)C2CCCCC2C1=O)OCC(=O)c1ccc(F)cc1 (stereo unspecified) | 5 | -3 | 0.2 | 5 | 6523 | -19 | /

Grouped by structure, those above with a thiophene ring, fused or not (two)
SMILES | Mtb hypoxia inh | Mtb hypoxia inh growth | Sa RN4220 lethal | ugtP null kill | Autofluor counter | PrP UTR inh | BJeLR lethal
Cc1csc(NC(=O)CNS(=O)(=O)c2cccs2)n1 | 0 | -5 | -4.2 | -7 | 4513 | -5 | 3
CC(Cc1cccs1)NC(=S)Nc1ccc(F)cc1 (stereo unspecified) | -2 | 8 | -6.4 | -11 | 2563 | -17 | 3

(continued)
SMILES | Mtb hypoxia inh | Mtb hypoxia inh growth | Sa RN4220 lethal | ugtP null kill | Autofluor counter | PrP UTR inh | BJeLR lethal
O=C(CNc1ccc2ccccc2c1)NNC1=NCCC1 | 6 | 1 | 5.8 | 8 | 2060 | -13 | -7
CC1CCCCN1C(=O)CN1CCN(S(=O)(=O)c2ccc(Br)cc2Cl)CC1 (stereo unspecified) | 9 | 0 | 4.6 | 6 | 3667 | -23 | /
CCC(=O)N1CCc2cc(Br)cc(S(=O)(=O)CCC(=O)NCc3ccco3)c21 | 9 | 8 | 5.1 | -2 | 8872 | -18 | -11
S=C(NCCN1CCOCC1)NN=Cc1c2ccccc2cc2ccccc12 | 15 | 7 | 3.5 | -2 | / | / | /
CCOc1ccc(/C=C2\CCC(C3CCCC3)C2=O)cc1 (stereo unspecified) | / | / | / | / | 4126 | -57 | -5
Cc1ccc(NS(=O)(=O)c2cccc(C(=O)NNC(=O)NC3CCCCC3)c2)c(C)c1 | 8 | 7 | 4.4 | 2 | 2586 | -11 | 9
CCOc1ccc(-c2c(C(=O)NN=Cc3ccc(OC(C)C)cc3)nnn2-c2nonc2N)cc1 | -1 | 0 | -5.4 | 0 | / | / | /
CCOC(=O)N1CCN(c2nc(-c3cccs3)cc(C(F)(F)F)n2)CC1 | -5 | -3 | -5.1 | 5 | 4397 | -12 | 11
CC1(C(=O)Nc2nccs2)Cc2ccccc2C(=O)O1 (stereo unspecified) | 7 | -1 | 7.0 | 6 | 10744 | -18 | 1
CCc1ccc(OCC(=O)OCC(=O)c2c(N)n(C)c(=O)n(C)c2=O)cc1 | 5 | 2 | 6.5 | 5 | 5055 | 2 | 6
CN(C)c1ccc(NC(=O)COC(=O)Cn2nnc3ccccc32)cc1 | 4 | 10 | 2.2 | 6 | 1951 | -11 | 2
COc1cccc(C(O)c2cnc(C(C)C)n2C)c1 (stereo unspecified) | 3 | 3 | 4.1 | -1 | 5853 | -22 | 0
CCO[C@@H]1OC(C(=O)N2CCN(Cc3ccc4c(c3)OCO4)CC2)=C[C@H](c2csc3ccccc23)[C@H]1CCCO | / | / | / | / | 3478 | -7 | -7
ON=Cc1ccc(OCc2ccccc2)c(Br)c1 | 15 | 3 | 9.0 | 2 | / | / | /
Cc1cccc(-c2cc(C(=O)Nc3c(C)n(C)n(-c4ccccc4)c3=O)c3ccccc3n2)c1 | -2 | -4 | -3.8 | -1 | 6384 | 2 | 3
O=C(CSc1n[nH]c(-c2ccccc2Cl)n1)NCc1cccc(C(=O)O)c1 | 7 | -2 | 3.2 | 0 | 4555 | -8 | -3
CC(C)CC12CN3CCN(CC(C3)C1=NO)C2 | -2 | 0 | 5.0 | -8 | / | / | /
CCOc1cc(/C=N\NC(=O)c2ccc(C)nc2)ccc1OC(=O)c1ccc(F)cc1 | / | / | / | / | 3590 | 3 | -1
CCC(=O)NNC(=O)CCC(=O)Nc1cccc(Cl)c1C | 4 | 5 | -0.7 | -2 | 4727 | -6 | 4
CCc1ccccc1N1C(=O)CC(Sc2nccc(C)n2)C1=O (stereo unspecified) | 5 | 8 | 7.7 | 6 | 3644 | -24 | -7
COc1ccc(NC(=O)CN(C)C(=O)c2sc3cc(Cl)ccc3c2Cl)cc1 | 5 | 5 | 2.4 | 9 | 5181 | -20 | 2
C=CCn1c(=N)c(C(=O)NCCCOC)cc2c(=O)n3ccccc3nc21 | / | / | 2.2 | 4 | 4022 | -9 | 3
Brc1cccc(OCCN2CCCCC2)c1 | 2 | 3 | 4.1 | 16 | 2599 | -26 | -10
COc1ccc(C(=O)Cn2ccsc2=NC(C)=O)cc1 | -12 | -12 | -1.3 | 3 | 2529 | -19 | 4
CC[C@]1(C(=O)OC)[C@H]2C(=O)N(Cc3ccccc3)C(=O)[C@H]2[C@H]2CN=C(SCc3ccc(C(=O)OC)cc3)N21 | -2 | 7 | 3.5 | -2 | 3845 | -30 | /
Cn1cc(C(=O)NC2CCCCCCC2)c(=O)c2cc(S(=O)(=O)N3CCCC3)ccc21 | 1 | 8 | 1.8 | -3 | 10504 | -12 | -4
CCCNC(=O)c1ccc(-c2nn(C)c(=O)c3ccccc23)cc1 | -1 | -1 | 1.3 | 11 | 3180 | -13 | -2
CCOC(=O)c1ccc(N=Nc2c(C)[nH]n(-c3ccccc3)c2=O)cc1 | 11 | 10 | 2.5 | 3 | 3239 | -6 | 0
CCOC(=O)/C=C1\SCC(=O)N1CCOc1cccc(Br)c1 | / | / | 1.6 | -8 | 2768 | -1 | 3
COC(=O)C1=C(c2ccc(OCc3ccccc3)cc2)CC2CCC1N2C(=O)NCc1ccc(N(C)C)cc1 (stereo unspecified) | 2 | 0 | 5.2 | 5 | / | / | /
O=C(Nc1cccc(C(=O)N2CCOCC2)c1)c1ccccc1Br | 10 | 7 | 1.5 | 0 | 5791 | 0 | -1
COc1ccc(N2C(=O)C(Cl)=C(N3CCN(Cc4ccccc4)CC3)C2=O)cc1 | 4 | 9 | 1.7 | 6 | 9936 | -12 | 2
CCCCOC(=O)Nc1ccc(N(C)C)cc1 | 18 | 5 | 1.8 | -1 | 2048 | -51 | 3
COCCn1c(=NC(=O)c2ccc(S(=O)(=O)N3CCc4ccccc4C3)cc2)sc2cc(S(N)(=O)=O)ccc21 | 1 | 10 | 3.7 | -5 | 7137 | 2 | 8
CCN(CC)c1ccc(C2Nc3cccc4cccc(c34)N2)c(O)c1 | 7 | 8 | -1.7 | -15 | 8366 | -21 | /
COCCNC(=O)Cc1ccc(Br)cc1 | 23 | 17 | 6.7 | 16 | 3371 | -1 | 8
C[C@H](NC(=O)c1nc[nH]c1C(=O)NCC(=O)OC(C)(C)C)C(=O)OC(C)(C)C | / | / | / | / | 2793 | -14 | -3
CCCN1C2CCCC1CC(NC(=O)Nc1cccc(C(C)=O)c1)C2 (stereo unspecified) | 7 | 3 | 4.9 | 14 | 6469 | -14 | 5
Cc1ccc(S(=O)(=O)N2CCN(c3ccc([N+](=O)[O-])c4cccnc34)CC2)cc1 | 6 | 7 | 3.1 | 1 | 2722 | -16 | -1
Cc1cc(NNC(=O)c2ccccc2)nc(NNC(=O)c2ccccc2)n1 | 5 | -4 | 4.4 | 2 | 4244 | -19 | 2
CCOc1cc(C(N)=O)cc(Br)c1OC | 2 | 3 | -1.3 | 5 | 10317 | -1 | 17
CN(C)CCN(Cc1cc2cc3c(cc2[nH]c1=O)OCO3)C(=S)NCC1CCCO1 (stereo unspecified) | 8 | -7 | -0.9 | -3 | 4696 | 3 | 7
O=C(CSc1nnnn1C1CCCC1)N1CCCc2ccccc21 | 3 | -5 | 6.6 | 12 | 7864 | -49 | -2
CSCC[C@H](NC(=O)OC(C)(C)C)c1nnc(SCC(N)=O)o1 | / | / | / | / | 2718 | -2 | 9
CCCCOc1ccc(-c2nnn(CC(=O)NCc3ccco3)n2)cc1 | 4 | 3 | -2.7 | -1 | 11452 | -61 | 30
Cc1csc(=O)n1CC(=O)OC(C)C(=O)Nc1cccc(Cl)c1 (stereo unspecified) | -7 | -3 | 3.9 | 0 | 5466 | -16 | -6

One compound at a time, as listed above:
Entry for O=C(CSc1nnnn1C1CCCC1)N1CCCc2ccccc21 → Mtb hypoxia inh: 3; Mtb hypoxia inh growth: -5; Sa RN4220 lethal: 6.6; ugtP null kill: 12; Autofluor counter: 7864; PrP UTR inh: -49; BJeLR lethal: -2
Entry for CN(C)CCN(Cc1cc2cc3c(cc2[nH]c1=O)OCO3)C(=S)NCC1CCCO1 (stereo unspecified) → Mtb hypoxia inh: 8; Mtb hypoxia inh growth: -7; Sa RN4220 lethal: -0.9; ugtP null kill: -3; Autofluor counter: 4696; PrP UTR inh: 3; BJeLR lethal: 7

Retrieved one by one from the list above, two records:
SMILES | Mtb hypoxia inh | Mtb hypoxia inh growth | Sa RN4220 lethal | ugtP null kill | Autofluor counter | PrP UTR inh | BJeLR lethal
CN(C)CCN(Cc1cc2cc3c(cc2[nH]c1=O)OCO3)C(=S)NCC1CCCO1 (stereo unspecified) | 8 | -7 | -0.9 | -3 | 4696 | 3 | 7
CCOc1cc(C(N)=O)cc(Br)c1OC | 2 | 3 | -1.3 | 5 | 10317 | -1 | 17
